Bioassay records (PubChem)
RecA intein inh – Mtb RecA intein splicing inhibitors, primary screen, biochemical, fluorescence, HTS; Protein RecA (Mycobacterium tuberculosis (strain ATCC 25618 / H37Rv)), P9WHJ3; cell-free RecA intein splicing; inhibition, %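 (about 9 µM by stock and volumes)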; 290,000 tested, 0.75% active; in the data active = inhibition above about 30%; inconclusive = no clear call, values can overlap the other calls;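 also: 0% = vehicle wells and 100% = reference inhibitor control wells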
Target sequence (P9WHJ3 whole entry, looked up): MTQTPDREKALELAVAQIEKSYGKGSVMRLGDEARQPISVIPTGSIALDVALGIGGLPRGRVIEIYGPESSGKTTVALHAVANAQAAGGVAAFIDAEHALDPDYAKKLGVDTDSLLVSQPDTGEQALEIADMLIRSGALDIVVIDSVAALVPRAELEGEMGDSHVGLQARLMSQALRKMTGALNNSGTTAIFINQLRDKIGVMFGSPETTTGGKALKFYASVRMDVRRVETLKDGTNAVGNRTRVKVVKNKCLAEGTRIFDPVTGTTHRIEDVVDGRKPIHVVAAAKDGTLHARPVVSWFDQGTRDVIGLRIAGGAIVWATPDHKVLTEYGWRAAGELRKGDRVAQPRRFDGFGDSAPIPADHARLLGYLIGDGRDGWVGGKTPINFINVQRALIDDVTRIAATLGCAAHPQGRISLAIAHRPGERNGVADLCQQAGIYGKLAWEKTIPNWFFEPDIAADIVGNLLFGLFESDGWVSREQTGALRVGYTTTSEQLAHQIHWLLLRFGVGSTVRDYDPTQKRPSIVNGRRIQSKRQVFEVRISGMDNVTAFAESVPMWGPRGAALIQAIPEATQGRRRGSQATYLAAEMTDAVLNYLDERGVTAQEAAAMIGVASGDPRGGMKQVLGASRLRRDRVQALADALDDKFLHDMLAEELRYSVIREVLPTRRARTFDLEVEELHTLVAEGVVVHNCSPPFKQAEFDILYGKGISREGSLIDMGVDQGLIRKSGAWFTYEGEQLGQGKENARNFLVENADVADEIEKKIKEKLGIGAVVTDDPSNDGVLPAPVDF
Arbovirus anti – antivirals against arbovirus infection, primary screen, cell-based, full library, 10K replicate subset. arbovirus infection cell-based antiviral screen. inhibition, % at 10 µM. 200,000 tested, 0.37% active. AID 1251, 2008;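 active = inhibition from about 30%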;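 also: bluetongue infection of BSR cells; cell survival read as ATP light after 72 h; 0% = infected wells without compound and 100% = uninfected wells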
YopH PTP inh – YopH tyrosine phosphatase inhibitors, primary screen, biochemical, fluorescence Ex485/Em525 | inhibition, %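 (about 10 µM by stock and volumes)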 | 140,000 tested, 0.16% active | YopH tyrosine phosphatase [Yersinia enterocolitica];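 active = inhibition of 50% or more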;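 also: controls were vehicle for no effect and minimum signal wells for full effect; inactives centre near -20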
Mtb betalactam – beta-lactam sensitization of Mtb H37Rv, H37Rv; inhibition, % at 25 µM; 330,000 tested, 0.27% active; M. tuberculosis H37Rv growth with meropenem, percent inhibition; hits of this screen are not shown here;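 active = about 74% or more and at least 40 points above the plate without the antibiotic, then above 30% in a dose series; inconclusive = first-round hits that could not be retested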;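 also: growth measured after seven days incubation then overnight dye step; 0% = bacteria only wells and 100% = bacteria with antibiotic; twin plates without the antibiotic show which effects depend on it; some results filed as inactive read as strong as hits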
Mtb H37Rv – M. tuberculosis H37Rv growth inhibitors, H37Rv strain (AID 1626); M. tuberculosis H37Rv growth inhibition; higher % means a stronger effect; inhibition, % at 10 µM, or IC50 in µM where a hit was titrated; 220,000 tested, 0.95% active;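 active = confirmed in a dose series; inconclusive = inhibition above 80% but not taken into the dose series; inactive = below 80% or under 30% at every dose of the series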;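 also: bacteria incubated seven days before Alamar blue readout; 0% = bacteria only wells and 100% = bacteria with antibiotic wells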
Arbovirus anti repeat – recorded beside Arbovirus anti, whose call it bears; inhibition, %; measured here: 10K subset replicate screen; many hits read low in the repeat;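 first of two repeat runs on a subset; 0% = infected and 100% = uninfected wells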
* hit, by the source's call; u = inconclusive; x = no result given.

SMILES | RecA intein inh | Arbovirus anti | YopH PTP inh | Mtb betalactam | Mtb H37Rv | others
CC(C)(C)NC(=O)COC(=O)c1ccc(Cl)c(S(N)(=O)=O)c1 | -1.6 | 16 | x | 5 | 5%
Cc1csc(NC(=O)CSc2nncn2C)n1 | -0.7 | -2 | -31 | -9 | -10%
S=C(c1ccc[nH]1)N1CCOCC1 | 0.6 | 0 | 16 | -11 | 1%
CNC(=O)c1c(NC(=O)c2ccc(S(=O)(=O)N3CCCc4ccccc43)cc2)sc2c1CCN(C)C2 | 1.1 | x | x | 66 | 3%
CC(C)C(NC(=O)CN1C(=O)c2ccccc2S1(=O)=O)C(C)C | 0.5 | 2 | -43 | -4 | 1% | Arbovirus anti repeat=2
O=C(CCCSc1ccc(Cl)cc1)Nc1ccccc1O | 16 | x | x | 86 | x
NC(=S)Cc1ccc(Cl)cc1Cl | -2.1 | x | x | 0 | -1%
C=CCN(C(=O)c1csnn1)C(C(=O)NC1CCCC1)c1ccc(F)cc1 (stereo not drawn) | -3.3 | x | x | -3 | x
Oc1ccccc1/C=N/Nc1ccccc1 | -8.0 | -20 | -16 | -6 | u
CC1Cc2ccccc2N1C(=O)CN1CCC(n2nnc3cc(C(F)(F)F)ccc32)CC1 (stereo not drawn) | 1.9 | -7 | -20 | 2 | 19%
c1ccc(-c2nc(NC3CC3)nc(-n3ccnc3)n2)cc1 | -2.3 | -12 | -42 | u | -1%
CCOC(=O)c1c(NC(=O)CCNCc2ccco2)sc2c1CCC2 | 1.6 | x | x | -9 | -1%
CSc1ncccc1C(=O)N1CCN(S(=O)(=O)c2ccccc2)CC1 | -0.4 | x | x | -1 | x
CCc1ccc2oc(C(=O)NCc3ccc(S(N)(=O)=O)cc3)c(C)c2c1 | 23 | -4 | x | -5 | -7%
CCC(C)NC(=O)c1ccccc1NC(=O)c1ccccc1N(C)S(C)(=O)=O (stereo not drawn) | 0.4 | -1 | -22 | -4 | -6%
CCOc1ccc(OCCC(=O)OCC(=O)N2CCN(S(=O)(=O)c3ccc(Cl)cc3)CC2)cc1 | -4.0 | x | x | -6 | x
COc1ccc(CCNC2=C(Cl)C(=O)N(CCc3ccccc3)C2=O)cc1OC | -59 | 9 | 11 | -3 | 6%
CCOC(=O)N1CCN(C(=O)C2CCC(=O)N(CCCN3CCCC3=O)C2)CC1 (stereo not drawn) | -0.9 | x | x | -4 | x
Cc1ccc(C(=O)Nc2cc(Cl)ccc2N2CCCCC2)s1 | 8.5 | 1 | -14 | 47 | 16%
COc1cc(OC)c(C(=O)N(CCc2ccccc2)Cc2ccccc2)cc1OC | 0.3 | x | x | 3 | x

14 entries already listed, sorted by count of non-hydrogen atoms, ascending:
SMILES | RecA intein inh | Arbovirus anti | YopH PTP inh | Mtb betalactam | Mtb H37Rv | others
NC(=S)Cc1ccc(Cl)cc1Cl | -2.1 | x | x | 0 | -1%
S=C(c1ccc[nH]1)N1CCOCC1 | 0.6 | 0 | 16 | -11 | 1%
Cc1csc(NC(=O)CSc2nncn2C)n1 | -0.7 | -2 | -31 | -9 | -10%
O=C(CCCSc1ccc(Cl)cc1)Nc1ccccc1O | 16 | x | x | 86 | x
CC(C)(C)NC(=O)COC(=O)c1ccc(Cl)c(S(N)(=O)=O)c1 | -1.6 | 16 | x | 5 | 5%
CC(C)C(NC(=O)CN1C(=O)c2ccccc2S1(=O)=O)C(C)C | 0.5 | 2 | -43 | -4 | 1% | Arbovirus anti repeat=2
CSc1ncccc1C(=O)N1CCN(S(=O)(=O)c2ccccc2)CC1 | -0.4 | x | x | -1 | x
CCc1ccc2oc(C(=O)NCc3ccc(S(N)(=O)=O)cc3)c(C)c2c1 | 23 | -4 | x | -5 | -7%
C=CCN(C(=O)c1csnn1)C(C(=O)NC1CCCC1)c1ccc(F)cc1 (stereo not drawn) | -3.3 | x | x | -3 | x
CCC(C)NC(=O)c1ccccc1NC(=O)c1ccccc1N(C)S(C)(=O)=O (stereo not drawn) | 0.4 | -1 | -22 | -4 | -6%
CCOC(=O)N1CCN(C(=O)C2CCC(=O)N(CCCN3CCCC3=O)C2)CC1 (stereo not drawn) | -0.9 | x | x | -4 | x
CC1Cc2ccccc2N1C(=O)CN1CCC(n2nnc3cc(C(F)(F)F)ccc32)CC1 (stereo not drawn) | 1.9 | -7 | -20 | 2 | 19%
CCOc1ccc(OCCC(=O)OCC(=O)N2CCN(S(=O)(=O)c3ccc(Cl)cc3)CC2)cc1 | -4.0 | x | x | -6 | x
CNC(=O)c1c(NC(=O)c2ccc(S(=O)(=O)N3CCCc4ccccc43)cc2)sc2c1CCN(C)C2 | 1.1 | x | x | 66 | 3%

Looked up one by one from above, 2 records:
SMILES | RecA intein inh | Arbovirus anti | YopH PTP inh | Mtb betalactam | Mtb H37Rv | others
Cc1csc(NC(=O)CSc2nncn2C)n1 | -0.7 | -2 | -31 | -9 | -10%
CCc1ccc2oc(C(=O)NCc3ccc(S(N)(=O)=O)cc3)c(C)c2c1 | 23 | -4 | x | -5 | -7%

(list continues)
SMILES | RecA intein inh | Arbovirus anti | YopH PTP inh | Mtb betalactam | Mtb H37Rv | others
COc1ccc(OCC(=O)Nc2ccc(S(=O)(=O)Nc3nc(C)cc(C)n3)cc2)cc1 | -0.6 | -1 | x | 0 | 4%
O=C(OCc1csc(Nc2ccccc2)n1)c1ccc(Cl)cc1 | 6.9 | -8 | -8 | 94 | 29%
CCNc1nc(Cl)nc(NNC(=O)C(C)Oc2ccccc2)n1 (stereo not drawn) | -6.3 | -4 | -22 | 9 | 0%
CC(Sc1nc2ccccc2s1)C(=O)c1c(N)n(C)c(=O)n(C)c1=O (stereo not drawn) | 1.7 | 1 | x | -2 | -7%
Cn1c(SCC(=O)Nc2ccc3c(c2)OCCO3)nnc1C1CC1 | -1.7 | x | x | 4 | x
O=C(CN1C(=O)c2cccc3cccc1c23)Nc1ccc(S(=O)(=O)Nc2nccs2)cc1 | -22 | 10 | 4 | -10 | 0%
Cc1ccc(S(=O)(=O)N2CCN(C(=O)COC(=O)C3CCC3)CC2)c(C)c1 | 8.9 | x | x | -15 | x
O=C(Nc1ccccc1)c1ccc(COc2ccccc2)cc1 | 3.7 | -1 | x | 4 | 5%
COc1ccc(C(C)=O)cc1CSCCC#N | 1.6 | 3 | 22 | 18 | -2%
CN(c1ccc(C(=O)N2CCOCC2)cc1)S(=O)(=O)c1cccs1 | 4.6 | x | x | -1 | x
COCCn1cc(-c2csc(N)n2)c2ccccc21 | -3.2 | x | x | -16 | x
CCOC(=O)N/N=C\c1ccc([N+](=O)[O-])o1 | -1.6 | -15 | 28 | 6 | -6%
CCc1ccccc1S(=O)(=O)Cc1ccc(C(=O)NC2CCCC2)o1 | -2.2 | x | x | 2 | x
CC(c1ccccc1)n1c(SCC(=O)N2CC(=O)Nc3ccccc32)nc2ccccc2c1=O (stereo not drawn) | 16 | 16 | -16 | 34 | 43%
COc1ccc(C(=O)N2CCN(Cc3ccccc3C)CC2)cc1OC | 2.3 | 8 | -20 | 0 | -1%
c1ccc(OCCOc2ccccc2-c2nnco2)cc1 | -1.6 | 2 | -27 | -2 | 0%
CCOC(=O)c1cc2c(=O)c3ccccc3oc2nc1C | -2.2 | x | x | u | x
O=C(NCc1ccco1)C1CCCN(S(=O)(=O)c2ccc(Br)cc2)C1 (stereo not drawn) | -4.8 | 4 | x | 0 | 0%
CCCc1ncc(C(O)c2cccc(OC)c2OC)n1C (stereo not drawn) | -0.3 | 6 | -7 | 1 | -4% | Arbovirus anti repeat=-3
CN(Cc1ccccc1)S(=O)(=O)c1ccc(Cl)c(C(=O)NCc2cccnc2)c1 | -4.6 | x | x | -10 | x
CCOC(CNC(=O)c1cccn2c(=O)c3c(C)c(C)sc3nc12)OCC | -8.3 | x | x | 3 | x
CC(=O)NC(Cc1ccccc1)C(=O)OCC(=O)c1ccc(Br)cc1 (stereo not drawn) | 3.7 | -4 | -11 | 0 | -1%
O=C(NNC(=O)c1c(O)c2ccccc2[nH]c1=O)c1ccccc1Br | 1.9 | x | x | 18 | x
CC(C)(C)c1ccc(NC(=O)N2CCCN(c3ccc([N+](=O)[O-])cn3)CC2)cc1 | 5.1 | x | x | 0 | 8%
O=C(CCC(=O)N(c1ccccc1)C(C(=O)NC1CCCC1)c1ccncc1)Nc1cccnc1 (stereo not drawn) | 2.6 | -1 | 0 | -8 | -9%
COc1ccc(-c2nc3c(c(=O)n(C)c(=O)n3C)n2CC2CC(c3ccccc3)=NO2)cc1OC (stereo not drawn) | 0.9 | x | -12 | -17 | -1%
Nc1nonc1-n1nnc(C(=O)N/N=C/C2CC=CCC2)c1CSc1ccccc1 (stereo not drawn) | -0.2 | x | x | 1 | -3%
COc1ccc(NCC(=O)N/N=C/c2cc([N+](=O)[O-])ccc2N2CCCC2)cc1 | -0.3 | 12 | x | -6 | 8%
CC(C)COC(=O)c1ccccc1N1C(=O)C2C3CCC(C3)C2C1=O (stereo not drawn) | 1.2 | -1 | -26 | -3 | -3%
Cn1c(=O)c2c(ncn2CC(=O)OCC(=O)Nc2ccc(Cl)cc2)n(C)c1=O | 2.9 | 5 | -13 | -3 | 8%
COc1ccc(NC(=O)c2cc3ccccc3o2)cc1OC | 0.9 | x | x | 0 | x
Clc1ccc(Sc2cnc3ccccc3n2)cc1 | 11 | -1 | -1 | -6 | 4%
CC(Oc1coc(CN2CCN(C(=O)c3ccco3)CC2)cc1=O)c1ccccc1 (stereo not drawn) | 0.2 | x | x | 0 | x
CCOc1cc(/C=C2/SC(=S)NC2=O)ccc1OC(=O)c1ccco1 | 3.9 | 2 | x | 82 | 14%
COC(=O)c1ccc(CSc2cc(C)c3ccccc3n2)o1 | 10 | 0 | x | -5 | -2%
CCOc1ccc(CCNC(=O)c2cc3sccc3n2C)cc1OCC | 0.0 | 5 | -11 | 2 | x
Cc1c(C(=O)N/N=C/c2ccccc2)[nH]c2ccc(Cl)cc12 | 6.6 | -24 | 20 | 6 | 7%
Cc1nc2ccccc2nc1CSc1nnc(N)s1 | -0.4 | 2 | -24 | -5 | -1%
Cc1cc(C)cc(NC(=S)NCc2ccc(S(N)(=O)=O)cc2)c1 | -3.5 | 3 | x | 1 | -7%
Cn1c(=O)c2c(nc(SCCN3CCCCC3)n2Cc2ccc(Cl)cc2)n(C)c1=O | 2.8 | -24 | 19 | -1 | 2%
C=CCNC(=O)c1ccc(-c2nc(-c3ccccc3)cs2)cc1 | 1.0 | 5 | -37 | 7 | 3%
COc1ccc(-c2cc(C(=O)N/N=C(\C)c3cccnc3)c3ccccc3n2)cc1 | -1.5 | x | x | 0 | x
CCC(C)c1ccc(OCc2ccc(C(=O)O)o2)cc1 (stereo not drawn) | 2.4 | x | x | 5 | x
COCc1cc(C)nc(SCC(=O)Nc2ccc(N3CCOCC3)cc2)c1C#N | 3.9 | x | x | 0 | x
Cc1coc2cc3oc(=O)c(CCC(=O)N4C[C@H]5C[C@@H](C4)c4cccc(=O)n4C5)c(C)c3cc12 | 5.2 | x | x | -3 | x
CC(C)(C)c1ccc(C(=O)OC/C(O)=C(\C#N)c2nc3ccccc3s2)cc1 | 4.0 | -3 | -23 | -1 | -10%
Cc1nc2sc(C(c3ccc(Cl)cc3)N3CCN(C(=O)c4ccco4)CC3)c(O)n2n1 (stereo not drawn) | x | 9 | -38 | -2 | -7%
O=C(O)CN(Cc1ccco1)S(=O)(=O)c1ccc(F)cc1 | -5.8 | 0 | -50 | 40 | -20%
Cn1nnc2cc(C(=O)N3CCSCC3)ccc21 | x | 8 | -16 | -3 | 1%
O=C(Cc1ccccc1)Nc1ccnn1C1CCN(Cc2ccc(CO)o2)CC1 | 1.4 | x | x | u | x
CCCn1ncc(CN2CCC(C(=O)Nc3cccc(-c4cccc(F)c4)c3)CC2)c1C | 2.0 | x | x | u | x
O=C(OCc1ccc(Br)cc1)c1ccncc1 | 0.1 | -1 | x | 0 | 6%
CC(C)Sc1nc(C(F)(F)F)cc(=O)n1-c1ccccc1 | -0.2 | 0 | -38 | -4 | 2%
CCCNC1=C(N(C(C)=O)c2cccc(F)c2)C(=O)c2ccccc2C1=O | 63* | -34 | 38 | 99 | 2.7µM*
Cc1cccc(OCC(=O)NCCCNC(=O)c2ccco2)c1 | -0.7 | x | x | -5 | x
COn1c(SC(C)C)nc2ccccc2c1=O | 6.2 | -7 | 17 | 2 | -5%
CCOc1cc(C2c3c(-c4ccccc4)n[nH]c3C(=O)N2c2ccc(C(=O)O)cc2)ccc1O (stereo not drawn) | 4.0 | 2 | x | 0 | 4%
Cc1ccc(/C=C/C(=O)O)cc1S(=O)(=O)NCc1ccco1 | 0.8 | 3 | x | -3 | -4%
C=C(C)n1c(=O)[nH]c2ccccc21 | -2.9 | -4 | -14 | -6 | 1%
CCc1nnc(NC(=O)CSc2ncnc3c2cnn3-c2ccc(OC)cc2)s1 | 0.4 | -13 | -7 | -6 | -6%

Some of the compounds tested; rates above refer to the full screens.
